UUG fidelity: modulators of start codon recognition fidelity in yeast | S. cerevisiae UUG-firefly luciferase reporter, luminescence/redox ratio | activity score, % at 18.7 µM | 350,000 compounds, 0.13% hits;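 active means replicate mean at a twofold rise or more, about +100% in these data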;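 further: firefly luciferase made from a UUG start codon reports start codon fidelity; reporter light over untreated wells divided by growth signal over untreated wells; some hits fall short of that in this replicate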
* = called active by the depositor.

canonical_smiles | UUG fidelity
C/C=C/c1ccc([C@H]2[C@H]3CN(CCC(F)(F)F)CCCCN3[C@H]2CO)cc1 | -6
CCCC#Cc1ccc([C@@H]2[C@@H](CO)N3CCCCN(S(C)(=O)=O)C[C@@H]23)cc1 | 4
C/C=C/c1ccc([C@@H]2[C@@H](CO)N[C@@H]2CN(CC)C(=O)c2ccccn2)cc1 | 2
O=C(C[C@H]1CC[C@H]2[C@@H](COC[C@H](O)CN2Cc2cccc(F)c2)O1)NCC1CCCCC1 | -3
COc1ccc(S(=O)(=O)N2CCCCN3[C@H](C2)[C@H](c2ccc(C#CC(C)C)cc2)[C@@H]3CO)cc1 | 14
Cc1cccc(-c2ccc([C@@H]3[C@@H](CO)N4CCCCN(C(=O)c5ccc6c(c5)OCO6)C[C@@H]34)cc2)c1 | 10
Cc1ccccc1CN(C)C[C@H]1OCc2cnnn2CCCC(=O)N([C@H](C)CO)C[C@@H]1C | -13
CCS(=O)(=O)N1CCCCN2[C@H](CO)[C@@H](c3ccc(-c4ccccc4C)cc3)[C@@H]2C1 | 1
CC(C)NC(=O)Nc1ccc2c(c1)CC(=O)N([C@@H](C)CO)C[C@@H](C)[C@H](CN(C)S(=O)(=O)c1ccc(Cl)cc1)O2 | 5
COc1ccc(S(=O)(=O)N(C)C[C@@H]2Oc3ccc(NC(=O)Cc4ccccc4)cc3CC(=O)N([C@H](C)CO)C[C@@H]2C)cc1 | -6
O=C(NC[C@H]1[C@@H](c2ccccc2)[C@H](CO)N1C(=O)Cc1cccnc1)C1CCC1 | -13
CCC(=O)N(C)C[C@H]1[C@H](c2ccc(-c3cccnc3)cc2)[C@@H](CO)N1C(C)=O | 0
C[C@H]1CN([C@@H](C)CO)C(=O)CCCn2nncc2CO[C@H]1CN(C)C(=O)Nc1ccc(-c2cccs2)cc1 | 12
OC[C@@H]1[C@H](c2ccc(C#Cc3cccnc3)cc2)[C@H]2CN(Cc3ccccc3F)CCCCN12 | 7
CO[C@@H]1CN(C)C(=O)c2ccc(NC(=O)Nc3ccccc3)cc2OC[C@@H](C)N(C(=O)CN(C)C)C[C@H]1C | -7
COc1ccc(C#Cc2ccc3c(c2)[C@@H]2[C@@H](CCN2C(=O)C2CCOCC2)[C@@H](CO)N3)cc1 | -16
CO[C@H]1CN(C)C(=O)c2cc(NC(=O)C3CC3)ccc2OC[C@H](C)N(Cc2ccccc2)C[C@H]1C | 0
COc1cccc(S(=O)(=O)Nc2ccc3c(c2)[C@@H]2C[C@@H](CC(=O)N(C)C)O[C@H](CO)[C@@H]2O3)c1 | 12
O=C(C[C@H]1CC[C@H]2[C@@H](COC[C@H](O)CN2CC2CCCCC2)O1)NCC1CC1 | 5
CN(C)CC#Cc1ccc([C@@H]2[C@H]3CN(C(=O)NC4CCCC4)CCCCN3[C@H]2CO)cc1 | 5

An excerpt of these results, as labelled records.
SMILES: C/C=C/c1ccc([C@@H]2[C@@H](CO)N[C@@H]2CN(CC)C(=O)c2ccccn2)cc1
- UUG fidelity: 2

SMILES: O=C(C[C@H]1CC[C@H]2[C@@H](COC[C@H](O)CN2Cc2cccc(F)c2)O1)NCC1CCCCC1
- UUG fidelity: -3

SMILES: COc1ccc(S(=O)(=O)N2CCCCN3[C@H](C2)[C@H](c2ccc(C#CC(C)C)cc2)[C@@H]3CO)cc1
- UUG fidelity: 14

Retrieved one by one from the entries so far:
canonical_smiles | UUG fidelity
COc1ccc(S(=O)(=O)N2CCCCN3[C@H](C2)[C@H](c2ccc(C#CC(C)C)cc2)[C@@H]3CO)cc1 | 14
O=C(NC[C@H]1[C@@H](c2ccccc2)[C@H](CO)N1C(=O)Cc1cccnc1)C1CCC1 | -13
CO[C@H]1CN(C)C(=O)c2cc(NC(=O)C3CC3)ccc2OC[C@H](C)N(Cc2ccccc2)C[C@H]1C | 0
OC[C@@H]1[C@H](c2ccc(C#Cc3cccnc3)cc2)[C@H]2CN(Cc3ccccc3F)CCCCN12 | 7
O=C(C[C@H]1CC[C@H]2[C@@H](COC[C@H](O)CN2Cc2cccc(F)c2)O1)NCC1CCCCC1 | -3

(listing goes on)
canonical_smiles | UUG fidelity
COCC#Cc1ccc([C@@H]2[C@H]3CN(C(=O)COC)CCCCN3[C@H]2CO)cc1 | 8
Cc1cc(C(=O)Nc2cccc3c2O[C@H](CN(C)C(=O)Nc2ccc4c(c2)OCO4)[C@@H](C)CN([C@@H](C)CO)C3=O)n(C)n1 | 1
O=S(=O)(c1cccs1)N1CCCCN2[C@H](CO)[C@H](c3ccc(C4=CCCCC4)cc3)[C@H]2C1 | -4
COc1ccc(CN(C)C[C@@H]2Oc3ccc(NS(=O)(=O)c4ccccc4)cc3C(=O)N([C@@H](C)CO)C[C@H]2C)cc1 | 18
Cc1ccc(S(=O)(=O)N2CC[C@@H]3[C@H]2c2cc(-c4ccccc4F)ccc2N(C)[C@H]3CO)cc1 | 1
CN1C[C@H]2[C@@H](c3ccccc31)[C@H](CO)N2C(=O)C1CCCC1 | -5
CCCC(=O)Nc1ccc2c(c1)OC[C@H](C)N(Cc1nccs1)C[C@H](C)[C@H](OC)CN(C)C2=O | -5
COc1cccc(S(=O)(=O)N2CCCCN3[C@H](C2)[C@@H](c2ccc(C#CCC(C)C)cc2)[C@@H]3CO)c1 | -8
Cc1ccc(S(=O)(=O)N(C)C[C@H]2Oc3ccc(NC(=O)CCC(F)(F)F)cc3CC(=O)N([C@@H](C)CO)C[C@@H]2C)cc1 | 22
CO[C@H]1CN(C)C(=O)c2cc(NC(=O)NC(C)C)ccc2OC[C@H](C)N(Cc2ccc(-c3ccccn3)cc2)C[C@@H]1C | 6
CO[C@@H]1CN(C)C(=O)c2ccc(NS(=O)(=O)c3ccccc3)cc2OC[C@@H](C)N(C)C[C@@H]1C | -4
Cc1cccc(-c2ccc([C@H]3[C@@H](CO)N4CCCCN(S(=O)(=O)c5ccccc5C)C[C@H]34)cc2)c1 | 16
CN1C(=O)c2cc(NC(=O)Cc3ccccc3)ccc2OC[C@H]2O[C@H](CC(=O)NC3CCC3)CC[C@@H]21 | 9
C[C@H](NC(=O)C[C@@H]1CC[C@H]2[C@@H](COC[C@H](O)CN2C(=O)Nc2ccccc2)O1)c1ccccc1 | -3
O=C(C[C@H]1CC[C@H]2[C@@H](COC[C@@H](O)CN2C(=O)c2ccc(F)cc2)O1)N1CCOCC1 | 5
C[C@H]1CN([C@@H](C)CO)C(=O)c2cc(NC(=O)CCC(F)(F)F)ccc2O[C@H]1CN(C)C(=O)Nc1ccc(F)cc1 | 9
CNC[C@@H]1Oc2ccc(NC(=O)Nc3cccc4ccccc34)cc2C(=O)N([C@H](C)CO)C[C@H]1C | 6
CCC(=O)N1[C@H](CO)[C@@H](c2ccc(-c3ccccc3)cc2)[C@@H]1CNC(=O)COC | 22
Cc1cccc(S(=O)(=O)N2CC[C@@H]3[C@H](CO)N(C)c4ccc(-c5ccccc5F)cc4[C@@H]32)c1 | -12
CO[C@H]1CN(C)C(=O)c2cc(NC(C)=O)ccc2OC[C@@H](C)N(CCC(F)(F)F)C[C@@H]1C | 11

Later entries:
canonical_smiles | UUG fidelity
C[C@H]1CN([C@@H](C)CO)C(=O)Cc2cc(NC(=O)c3ccncc3)ccc2O[C@@H]1CN(C)S(=O)(=O)c1ccc(Cl)cc1 | -8
CN(C[C@H]1[C@H](c2ccccc2)[C@@H](CO)N1C(=O)C1CC1)C(=O)c1ccccn1 | -8
CO[C@H]1CN(C)C(=O)c2cc(NC(C)=O)ccc2OC[C@@H](C)N(CCc2ccccc2)C[C@@H]1C | 1
COc1cccc(-c2ccc3c(c2)[C@H]2[C@H](CCN2C(=O)c2cnccn2)[C@H](CO)N3)c1 | 4
C/C=C/c1ccc([C@@H]2[C@@H](CN(C)C(=O)CC)N(C(=O)NCCC)[C@H]2CO)cc1 | 11
O=C(C[C@@H]1C[C@@H]2c3cc(NC(=O)c4cccnc4)ccc3O[C@@H]2[C@H](CO)O1)NCc1ccncc1 | -3
C[C@@H](O)C#Cc1ccc([C@@H]2[C@@H](CO)N3CCCCN(CC4CC4)C[C@H]23)cc1 | 1
CC(=O)NC[C@@H]1[C@@H](c2ccc(C3=CCCC3)cc2)[C@@H](CO)N1C(=O)NC(C)C | 24
C[C@H](O)C#Cc1ccc([C@H]2[C@@H](CO)N3CCCCN(S(=O)(=O)Cc4ccccc4)C[C@H]23)cc1 | 0
COc1ccccc1C(=O)N1C[C@@H]2[C@H](c3ccccc31)[C@H](CO)N2C(=O)Nc1ccccc1 | 1
CO[C@@H]1CN(C)C(=O)c2ccc(NC(=O)NC3CCCCC3)cc2OC[C@@H](C)N(CC2CC2)C[C@H]1C | -6
CNC[C@H]1Oc2ccc(NS(=O)(=O)c3ccccc3)cc2C(=O)N([C@H](C)CO)C[C@H]1C | -10
O=S(=O)(c1ccc(F)cc1)N1CCCCN2[C@H](CO)[C@H](c3ccc(C#CC4CCCC4)cc3)[C@@H]2C1 | 9
OC[C@@H]1[C@@H](c2ccc(-c3ccccc3F)cc2)[C@H]2CN(Cc3cncnc3)CCCCN12 | -7
CC=Cc1ccc2n(c1=O)C[C@H]1[C@H](CO)[C@@H](C(=O)N(C)C)N(CC3CC3)[C@@H]21 (mixture of isomers) | -4
C[C@@H]1CN([C@@H](C)CO)C(=O)c2cccc(NC(=O)c3ccncc3)c2O[C@H]1CN(C)C | -6
Cc1noc(C)c1NC(=O)Nc1cccc2c1O[C@H](CN(C)Cc1ccc(C(=O)O)cc1)[C@H](C)CN([C@@H](C)CO)C2=O | -35
COc1ccc(C#Cc2ccc3c(c2)[C@H]2[C@H](CCN2C(=O)c2ccccc2F)[C@H](CO)N3C)cc1 | -15
CCCNC(=O)C[C@H]1CC[C@@H]2[C@@H](COc3ccc(NC(=O)Nc4c(C)noc4C)cc3C(=O)N2C)O1 | 0
CCC(=O)Nc1ccc2c(c1)C(=O)N(C)C[C@@H](OC)[C@@H](C)CN(Cc1ccccc1F)[C@@H](C)CO2 | -10

Remaining list, next part
canonical_smiles | UUG fidelity
O=C(C1CCC1)N1CCCCN2[C@@H](CO)[C@H](c3ccc(-c4cccc(F)c4)cc3)[C@@H]2C1 | -7
COc1cccc(S(=O)(=O)Nc2ccc3c(c2)C(=O)N(C)C[C@H](OC)[C@H](C)CN(C(=O)Cc2cccnc2)[C@@H](C)CO3)c1 | 3
C[C@@H]1CN([C@@H](C)CO)C(=O)c2cccc(NC(=O)C3CC3)c2O[C@H]1CN(C)Cc1ccccc1 | -3
CO[C@@H]1CN(C)C(=O)c2cc(NC(=O)c3cc(C)on3)ccc2OC[C@@H](C)N(S(=O)(=O)c2cccc(F)c2)C[C@H]1C | -1
CC(=O)N1[C@H](CO)[C@@H](c2ccc(-c3cccc(F)c3)cc2)[C@H]1CNC(=O)C1CC1 | 2
COc1ccccc1NC(=O)N1C[C@H]2[C@@H](c3ccccc31)[C@H](CO)N2C(=O)C1CC1 | -3
O=C(C[C@@H]1C[C@@H]2c3cc(NC(=O)Nc4ccccc4)ccc3O[C@@H]2[C@@H](CO)O1)NCC1CC1 | 8
CO[C@H]1CN(C)C(=O)c2cc(NC(=O)NC(C)C)ccc2OC[C@@H](C)N(C)C[C@@H]1C | -10
COc1ccccc1NC(=O)N1CCCCN2[C@H](C1)[C@H](c1ccc(C#Cc3ccccc3)cc1)[C@@H]2CO | 1
CCC(=O)N1CC[C@H]2[C@H](CO)Nc3ccc(-c4ccc(F)cc4)cc3[C@H]21 | -5
Cn1cnc(S(=O)(=O)N2CCCCN3[C@H](C2)[C@H](c2ccc(-c4ccccc4F)cc2)[C@@H]3CO)c1 | 7
CN(C)C(=O)c1cccc(-c2ccc3c(c2)[C@@H]2[C@@H](CCN2C(=O)c2cnccn2)[C@@H](CO)N3)c1 | -30
CCC(=O)Nc1ccc2c(c1)OC[C@@H](C)N(S(=O)(=O)c1cn(C)cn1)C[C@@H](C)[C@H](OC)CN(C)C2=O | 4
C[C@H]1CN([C@@H](C)CO)C(=O)c2cc(NC(=O)Cc3ccccc3)ccc2O[C@@H]1CN(C)Cc1ccc(Cl)c(Cl)c1 | 0
CN(C[C@@H]1N[C@H](CO)[C@@H]1c1ccc(-c2cccc(F)c2)cc1)S(C)(=O)=O | -7
O=C(Nc1ccc(F)cc1)N1CCCCN2[C@@H](CO)[C@H](c3ccc(-c4cccc(F)c4)cc3)[C@@H]2C1 | 23
COc1cccc(S(=O)(=O)N2CC[C@H]3[C@H](CO)Nc4ccc(C#Cc5ccccc5)cc4[C@H]32)c1 | 3
COCC(=O)N1CCCCN2[C@H](CO)[C@@H](c3ccc(C#Cc4ccc(OC)cc4)cc3)[C@@H]2C1 | -3
C[C@H](CO)N1C[C@H](C)[C@@H](CN(C)C)Oc2ccc(NC(=O)Nc3ccc(F)cc3)cc2C1=O | 17
C[C@H](CO)N1C[C@H](C)[C@H](CN(C)C)Oc2c(NC(=O)c3cnccn3)cccc2C1=O | -16

(continued)
canonical_smiles | UUG fidelity
COC(=O)[C@@H]1N[C@@H]2c3ccc(C4=CCCCC4)c(=O)n3C[C@@H]2[C@H]1CO | 1
COc1ccc(NC(=O)Nc2ccc3c(c2)CC(=O)N([C@H](C)CO)C[C@@H](C)[C@@H](CN(C)C(=O)Nc2ccccc2)O3)cc1 | -2
C[C@H](CO)N1C[C@H](C)[C@H](CN(C)S(=O)(=O)c2ccc(Cl)cc2)Oc2ccc(NS(=O)(=O)c3cccs3)cc2C1=O | 2
C[C@@H]1CN([C@H](C)CO)C(=O)c2cccc(NC(=O)Nc3ccc(C(F)(F)F)cc3)c2O[C@H]1CN(C)S(C)(=O)=O | 7
CN1c2ccc(-c3cccc(C#N)c3)cc2[C@H]2[C@H](CCN2C(=O)CC2CC2)[C@H]1CO | 0
O=C(Nc1ccccc1)N1C[C@H]2[C@@H](c3ccccc31)[C@@H](CO)N2C(=O)c1cccnc1 | -16
C[C@H]1CN([C@@H](C)CO)C(=O)c2cccc(NC(=O)Nc3ccccc3)c2O[C@@H]1CN(C)Cc1ccc(C(=O)O)cc1 | -7
COC(=O)C[C@H]1CC[C@H]2[C@@H](COc3ccc(NC(=O)c4ccc(C#N)cc4)cc3C(=O)N2C)O1 | -5
OC[C@H]1[C@@H](c2ccc(-c3cccnc3)cc2)[C@H]2CN(CC3CCOCC3)CCCCN21 | -10

Assay outcomes (PubChem)

These rows are one share of the data; the hit share may differ from the screen's.
